Assay outcomes: PubChem, several laboratories
PKD1 inh: blocks activity of human protein kinase D1. Q15139. PKD1 kinase fluorescence polarization assay. inhibition, %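 (about 10 µM by stock and volumes)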. 0.056% of 200,000 active. AID 797;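 active means inhibition of 50% or more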;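 further: controls were vehicle for no effect and a reference inhibitor for full effect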
RGS16-Gao: RGS16-Galphao interaction regulator (human); O15492+P09471; bead-based flow cytometry RGS16-Galphao binding, fluorescence; actives lie on both sides; binding response (% of control), % at 10 µM; 0.38% of 220,000 active; AID 1441;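 active means below 25% or above 175%, edge rows of some plates excepted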;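 further: Galphao activated by GDP with aluminum fluoride before binding; 100% = wells without compound and 0% = beads without RGS; some results beyond the cut were filed as inactive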
Target sequence (O15492 whole entry, looked up): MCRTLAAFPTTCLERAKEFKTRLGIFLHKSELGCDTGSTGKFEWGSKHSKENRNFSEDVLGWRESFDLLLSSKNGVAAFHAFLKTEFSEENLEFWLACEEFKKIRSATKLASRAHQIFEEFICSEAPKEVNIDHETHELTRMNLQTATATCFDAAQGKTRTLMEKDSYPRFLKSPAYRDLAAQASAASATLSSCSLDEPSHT
Target sequence (P09471 whole entry, looked up): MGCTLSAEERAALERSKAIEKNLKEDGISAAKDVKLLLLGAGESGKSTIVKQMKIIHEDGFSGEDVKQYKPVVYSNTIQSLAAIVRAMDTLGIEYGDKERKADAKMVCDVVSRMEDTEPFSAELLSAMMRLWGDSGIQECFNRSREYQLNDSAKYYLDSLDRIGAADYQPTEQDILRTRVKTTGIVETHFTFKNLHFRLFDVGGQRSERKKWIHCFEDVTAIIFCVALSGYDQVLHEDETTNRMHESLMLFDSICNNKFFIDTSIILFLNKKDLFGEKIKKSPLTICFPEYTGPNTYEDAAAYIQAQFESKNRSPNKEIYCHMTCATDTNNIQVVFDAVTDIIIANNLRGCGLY
HSV replic up: increases HSV replication in cells | HSV replication augmentation in cells, fold increase | maximum fold increase | 0.005% of 220,000 active | AID 1956;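 active means peak rise of 1.5-fold or more in the series; inconclusive means self-fluorescent or not available for retest; tested in PC3 cells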;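 further: first round at 10 µM; read as green reporter fluorescence; hits show the peak of a series up to 25 µM; 1 = signal of infected wells without compound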
GALR2 agonist: GALR2 (human) receptor agonism; O43603; GALR2-expressing cells, agonist activation read-out; activation, %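 (tested at 5 µM)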; 0.48% of 140,000 active;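 active means above mean plus 3 SD of all compounds, about 5% in these data, not always enough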;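 further: 0% = vehicle buffer wells and 100% = reference agonist at full effect; tested in CHO reporter cells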
Target sequence (O43603 whole entry, looked up): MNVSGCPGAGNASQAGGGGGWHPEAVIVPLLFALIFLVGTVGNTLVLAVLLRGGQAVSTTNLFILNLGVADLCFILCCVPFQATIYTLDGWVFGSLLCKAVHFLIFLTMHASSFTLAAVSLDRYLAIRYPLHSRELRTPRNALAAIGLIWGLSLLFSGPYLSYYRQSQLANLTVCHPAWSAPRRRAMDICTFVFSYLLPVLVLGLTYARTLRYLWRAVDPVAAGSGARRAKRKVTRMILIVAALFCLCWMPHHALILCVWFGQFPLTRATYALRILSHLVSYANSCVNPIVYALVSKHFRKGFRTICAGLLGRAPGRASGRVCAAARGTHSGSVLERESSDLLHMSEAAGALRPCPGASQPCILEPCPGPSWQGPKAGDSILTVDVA
Insulin prom inh: TRM-6 insulin promoter activity inhibition; AID 1273; inhibition, % at 2 µM; TRM-6 cells (human fetal islet line), insulin promoter-eGFP reporter, imaging; reporter expression induced with tamoxifen; 0.9% of 130,000 active;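 active means inhibition above the mean plus 3 SD, with well images judged a real hit on visual review, cut at about 60% in these data, passing the limit was not always enough; inconclusive means inhibition over the cutoff but images rejected on review; inactive means inhibition not above the cutoff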
Insulin prom inh cell count: further read-out of Insulin prom inh, marked with its call; normalized cell count, %; measured here: cell count, toxicity; reference of the scale not given here;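 cells exposed to compound for 48 h; stained nuclei by imaging scaled within each plate; lower means fewer cells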
HSV replic up primary fold: further read-out of HSV replic up, marked with its call; fold increase; compound at 10 µM; measured here: primary screen fold increase 10 uM; tested in PC3 cells;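 GFP signal in the first replicate; 1 = infected wells without compound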
Numbers without * were called inactive; i = inactive; u = inconclusive; x = not tested or not shown; [ ] = remark or other dose.

SMILES	PKD1 inh	RGS16-Gao	HSV replic up	HSV replic up primary fold	GALR2 agonist	Insulin prom inh	Insulin prom inh cell count
O=C(O)CCc1ccc(-c2ccccc2)n1NC(=O)c1ccco1	3.9	119.4	i	1.04	-2.5	-13.6	94.4
CCOc1cccc(NC(=O)Cc2cccs2)c1	-0.7	114.1	i	0.997	-0.2	7.7	97.0
Cc1cc2c3c(c1C)C1(C(=O)N3C(C)(C)CC2C)C(C#N)=C(N)Oc2cc(O)ccc21 (centres undefined)	4.6	93.7	i	0.73	-3.5	-11.4	101.9
CC(C)(C)C1C/C(=C/c2ccco2)C(=O)/C(=C/c2ccco2)C1 (centres undefined)	-13.8	88.8	i	1.13	-0.5	-292.9	118.4
CCS(=O)(=O)c1nc(NC(C)=O)n[nH]1	-7.0	75.1	i	0.85	-1.1	x	x
c1ccc(Cn2nnnc2C(c2ccccn2)N2CCN(c3ccccc3)CC2)cc1 (centres undefined)	0.1	100.9	i	1.01	-0.2	13.5	134.1
C/C(Nc1ccc(F)cc1)=C(/C#N)C(N)=O	19.1	101.2	i	0.91	-0.5	x	x
O=[N+]([O-])c1cccc(-c2nc(-c3ccccn3)no2)c1	x	99.7	i	0.86	x	x	x
Cc1ccc(-c2csc(N(Cc3ccccc3)C(=O)COc3ccccc3)n2)cc1	-5.2	105.5	i	1.08	0.4	62.8	28.4
O=C(CCCNS(=O)(=O)c1ccc(Br)cc1)N1CC[C@@]2(O)CCCC[C@H]2C1	-4.1	96.1	i	0.67	-2.4	-53.9	76.0
N#C/C(=C(/O)Cc1cccc2ccccc12)c1nc2ccccc2s1	2.5	100.1	i	0.8	-3.0	12.7	74.4
COc1ccc(/C(C)=N/NC(=S)NCc2ccco2)cc1	-8.8	119.3	i	0.98	-0.9	-30.2	67.8
CC(C)COc1ccc2[nH]c3c(c2c1)CCCC3=O	2.8	336.0*[activator]	u	x	-1.8	12.5	126.0
CCOC(=O)c1ccc(N2C(=O)c3n[nH]c(C)c3C2c2ccc(OC)c(OC)c2)cc1 (centres undefined)	5.7	101.2	i	0.9	0.3	8.3	78.9
Cc1ccc(C(=O)NNC(=O)C2CCN(c3nccc(C)n3)CC2)cc1	-5.5	97.8	i	0.77	-0.5	43.3	96.3
COc1cc(OC)cc(C(=O)N[C@H](C(=O)OCC(=O)Nc2ccc(OC)c(OC)c2)C(C)C)c1	4.2	94.9	i	0.85	x	x	x
COc1ccc(-c2nnc(SCC(=O)N/N=C/c3ccccc3C(=O)O)n2-c2ccc(Cl)cc2)cc1	x	103.9	i	1.06	x	x	x
COc1ccc(S(=O)(=O)NCc2ccccc2)cc1	-5.6	99.9	i	0.94	-3.5	-32.4	84.8
CC(=O)CCc1c(C)nc2ccc(C(=O)O)cc2c1Cl	-5.1	41.8	i	1.02	-1.1	17.5	86.4
Cc1nnsc1C(=O)N/N=C/c1cccc(C(F)(F)F)c1	-3.3	99.5	i	0.97	x	x	x
COc1cccc(C(C(=O)NC2CCCC2)N(CC2CCCO2)C(=O)Cc2cccs2)c1 (centres undefined)	-8.6	94.4	i	1.03	x	x	x
Cc1ccc(C2CC(c3ccc(C)cc3)n3nc(N)nc3N2)cc1 (centres undefined)	-0.1	105.6	i	0.87	-0.6	x	x
O=C1CC(C(=O)O)c2ccccc2N1 (centres undefined)	9.9	99.4	i	0.93	-2.2	x	x
O=C(Cc1ccc(Cl)cc1)Nc1ccc(SC(F)F)cc1	-5.7	102.3	i	0.86	-0.7	20.0	95.8
Cc1ccc2oc(-c3ccc(NC(=O)c4ccncc4)cc3O)nc2c1	-1.6	98.3	i	0.98	x	x	x
CCC12CN3CC(CC)(CN(C1)C3c1ccc(OC(C)C)cc1)C2=O (centres undefined)	-6.0	122.4	i	1.04	-1.7	-4.8	55.0
CC(=O)c1ccc(N2CCN(C(=S)Nc3ccccc3)CC2)cc1	-12.6	100.7	i	0.92	-0.5	58.3	109.6
O=C(N/N=C\c1ccccc1)c1ccccc1-n1cccc1	-5.3	107.2	i	0.95	x	13.3	124.0
COc1cc(C2N(c3ccc(Cl)cc3)C(=O)C3CCCN32)cc(OC)c1OC (centres undefined)	-4.2	102.9	i	1.41	-3.0	x	x
O=C(C1CCCO1)N1CCN(c2c3c(nc4cc(-c5ccc(F)cc5)nn24)CCC3)CC1 (centres undefined)	6.2	103.0	i	0.77	-2.2	x	x
COc1ccccc1N1CCN(C(=O)c2cc(C3CC3)on2)CC1	1.9	97.2	i	0.94	-1.2	x	x
Cc1ccccc1-c1nc(CN2CCC(C(=O)NCCCN3CCOCC3)CC2)c(C)o1	-4.0	123.1	i	0.69	-1.1	-14.3	99.2
CCOC(=O)/C(=N\Nc1ccccc1Cl)N1CCN(C)CC1	0.0	103.6	i	0.99	-1.8	x	x
Cc1cc(C(=O)OCC(=O)N2CC(=O)Nc3ccccc32)no1	4.3	97.5	i	0.85	-1.0	21.2	93.5
O=c1[nH]c(CSc2nnc3ccccn23)nc2cc(C(F)(F)F)ccc12	0.2	99.1	i	0.93	x	x	x
COc1ccc(NC(=O)CCc2nc(-c3ccc(C)cc3)no2)c(OC)c1	4.6	102.8	i	0.95	-2.4	50.0	117.1
NC(=O)C1CC(=O)N(c2ccc(OCC(=O)Nc3cccc(C(F)(F)F)c3)cc2)C1 (centres undefined)	-9.5	35.4	i	0.99	8.3	62.1	76.5
C/C(CC(=O)NCCCN1CCOCC1)=N\NC(=O)COc1cccc2ccccc12	2.9	151.4	i	1.04	0.3	-121.4	45.4
CCOc1ccc(NC(=O)c2cn(-c3ccc(OCC)cc3)c(=O)c3cc(OC)c(OC)cc23)cc1	-4.1	105.4	i	0.82	1.5	-2.7	98.9
O=C(CSc1nnc(Nc2ccccc2)s1)Nc1ccc(S(=O)(=O)N2CCOCC2)cc1	-1.3	96.4	i	1.01	-1.4	14.3	114.4
CC1(C)CC(=O)C2=C(C1)N(c1ccc(F)cc1)C(=O)C2(NC(=O)c1ccccc1F)C(F)(F)F (centres undefined)	6.5	102.1	i	0.97	-1.7	-13.8	144.7
Nc1ccc(Cl)c(S(=O)(=O)Nc2ccc(Cl)cc2)c1	x	99.4	i	0.84	x	x	x
CCCCc1ccc(NC(=S)NCc2ccc(OC)cc2)cc1	9.9	95.2	i	1	x	11.8	101.3
Cc1cc(=O)oc2cc(OCC(=O)N3c4ccccc4CC3C)ccc12 (centres undefined)	-1.7	102.0	i	0.71	-3.8	6.5	96.2
COc1ccc(COCC(O)CN2CCC(C(N)=O)CC2)cc1OC (centres undefined)	5.5	107.0	i	1.05	x	x	x
Cc1ccc(CN2C(=O)CCSc3ccc(Cl)cc32)cc1	-5.2	99.1	i	0.85	-1.0	-7.4	95.2
O=C(COC(=O)C12CC3CC(CC(C3)C1)C2)Nc1nc2c(F)c(F)c(F)cc2s1	0.9	98.9	i	0.92	-1.5	6.2	121.8
COc1cccc(C2=NC(C)(C)NC(c3ccccc3O)C2)c1 (centres undefined)	6.9	101.4	i	1.09	-1.0	x	x
O=C(CC1Sc2ccccc2NC1=O)NCc1ccccc1 (centres undefined)	x	95.0	i	1.02	x	x	x
Clc1ccc(SCCCCn2cncn2)cc1	-7.0	107.2	i	0.89	-4.8	14.3	58.9
FC(F)(F)c1cccc(N2CCN(CC3CC4C=CC3C4)CC2)c1 (centres undefined)	-2.2	96.0	i	0.96	1.6	7.7	71.4
CC(=O)N(Cc1cc2cc(C)c(C)cc2n2nnnc12)CC1COCCO1 (centres undefined)	-4.4	100.9	i	0.98	0.9	x	x
COc1ccc(NC(=O)CN2CCN(c3nc(-c4ccc(F)cc4)cs3)CC2)c(OC)c1	1.7	83.5	i	1.07	x	x	x
COc1ccccc1NC(=O)CSc1nnc(C)o1	2.6	97.2	i	0.927	-4.3	x	x
O=C(CSc1ncnc2nc[nH]c12)N1CCOCC1	-17.2	102.8	i	0.87	-1.8	-38.7	100.0
CCCCOC(=O)C1=C(C)Nc2ncnn2C1c1ccc(OC)c(OC)c1 (centres undefined)	-3.2	102.2	i	0.88	-1.1	x	x
Oc1ccc2c(c1)oc1cc(O)ccc12	1.1	102.7	i	0.71	-0.4	x	x
Cc1cc(C)c(C(=O)OCCNC(=O)c2cccnc2)cc1C	-8.9	117.3	i	1.1	-0.2	47.6	87.3
CN(C)c1ccc(NC(=O)CSCc2nc3c(nnn3Cc3ccc(F)cc3)c(=O)[nH]2)cc1	-7.4	102.4	i	0.93	-1.1	-33.3	122.6
COc1ccc(N(C)S(=O)(=O)c2cccc(C(=O)NC3CCCC3)c2)cc1	4.3	103.0	i	0.97	x	-35.0	158.0

(cont.)
SMILES	PKD1 inh	RGS16-Gao	HSV replic up	HSV replic up primary fold	GALR2 agonist	Insulin prom inh	Insulin prom inh cell count
O=C(CSc1nnc(-c2ccccc2F)n1C1CC1)Nc1ccc2[nH]c(=O)[nH]c2c1	1.4	102.1	i	1.01	x	-11.8	95.0
COC(=O)Cn1ccc(-c2ccc(Cl)cc2)c(C#N)c1=O	7.7	101.1	i	0.97	x	x	x
O=C1CCC(/C=C/c2ccccc2)=NN1Cc1ccccc1	-3.5	104.9	i	0.93	x	31.7	78.4
COc1cccc(CN2CCN(C(=O)c3cccc4ccccc34)CC2)c1OC	0.9	106.5	i	0.76	-1.3	x	x
CS(=O)(=O)NN1C(=O)c2ccccc2NC1c1ccccc1O (centres undefined)	1.9	105.8	i	1.06	x	x	x
CCOC(=O)C1=C(N)n2c(s/c(=C\c3ccco3)c2=O)=C(C(=O)OC(C)C)C1c1ccco1 (centres undefined)	-2.9	97.0	i	1.35	-1.5	-276.0	24.2
CCN1CCN(CC(=O)NC2CCCCC2)C(=O)C1=O	-11.9	108.8	i	0.8	-2.4	x	x
O=C(COc1ccc(-n2ccnc2)cc1)Nc1cccc(Cl)c1	-3.2	94.3	i	1.02	x	x	x
CCOc1ccc(C(=O)NCc2ccco2)cc1	3.7	108.6	i	0.88	-1.6	39.4	102.5
CC(=O)c1cc(C#N)c(SCc2ccccc2)nc1C	-3.9	99.3	i	0.93	-2.1	-11.1	65.7
COc1cccc(CNC(=O)c2cc(COc3c(F)cccc3F)on2)c1	2.9	100.6	i	1.09	x	x	x
N#Cc1nc(Cc2ccccc2)oc1N1CCCC1	0.7	103.8	i	1.02	x	x	x
COc1ccccc1NC(=O)c1cc(Br)ccc1Cl	-1.6	101.3	i	0.99	x	-25.9	114.0
Cc1ccc(Nc2nc(N)nc(CN3CCN(C)CC3)n2)cc1C	-8.6	201.5	i	0.99	0.1	x	x
CCCCN(CCCC)Cc1ccc(C(=O)NNC(=O)Nc2ccc(F)cc2)o1	4.1	93.1	i	0.97	x	0.0	111.8
Cc1ccc(NC(=O)c2cccc(S(=O)(=O)N(C)c3ccccc3)c2)cc1S(=O)(=O)N1CCOCC1	-6.4	107.4	i	0.72	-0.9	-3.1	106.5
Clc1ccc2c(c1)[C@H]1OCC[C@H]1[C@@H](c1ccco1)N2	1.0	107.1	i	0.86	-1.3	x	x
COc1cc(-c2cc(C(=O)O)c3cc4c(cc3n2)OCCO4)cc(OC)c1OC	4.0	x	i	0.97	-3.3	9.7	40.5

Rewritten bar-delimited: entries from further up
structure | PKD1 inh | RGS16-Gao | HSV replic up | HSV replic up primary fold | GALR2 agonist | Insulin prom inh | Insulin prom inh cell count
O=C(O)CCc1ccc(-c2ccccc2)n1NC(=O)c1ccco1 | 3.9 | 119.4 | i | 1.04 | -2.5 | -13.6 | 94.4
CCOc1cccc(NC(=O)Cc2cccs2)c1 | -0.7 | 114.1 | i | 0.997 | -0.2 | 7.7 | 97.0
Cc1cc2c3c(c1C)C1(C(=O)N3C(C)(C)CC2C)C(C#N)=C(N)Oc2cc(O)ccc21 (centres undefined) | 4.6 | 93.7 | i | 0.73 | -3.5 | -11.4 | 101.9
CC(C)(C)C1C/C(=C/c2ccco2)C(=O)/C(=C/c2ccco2)C1 (centres undefined) | -13.8 | 88.8 | i | 1.13 | -0.5 | -292.9 | 118.4
CCS(=O)(=O)c1nc(NC(C)=O)n[nH]1 | -7.0 | 75.1 | i | 0.85 | -1.1 | x | x
c1ccc(Cn2nnnc2C(c2ccccn2)N2CCN(c3ccccc3)CC2)cc1 (centres undefined) | 0.1 | 100.9 | i | 1.01 | -0.2 | 13.5 | 134.1
C/C(Nc1ccc(F)cc1)=C(/C#N)C(N)=O | 19.1 | 101.2 | i | 0.91 | -0.5 | x | x
O=[N+]([O-])c1cccc(-c2nc(-c3ccccn3)no2)c1 | x | 99.7 | i | 0.86 | x | x | x
Cc1ccc(-c2csc(N(Cc3ccccc3)C(=O)COc3ccccc3)n2)cc1 | -5.2 | 105.5 | i | 1.08 | 0.4 | 62.8 | 28.4
O=C(CCCNS(=O)(=O)c1ccc(Br)cc1)N1CC[C@@]2(O)CCCC[C@H]2C1 | -4.1 | 96.1 | i | 0.67 | -2.4 | -53.9 | 76.0
